StopGo reporter = FMDV 2A StopGo reporter, luciferase signal | human cells with a luciferase reporter of 2A StopGo recoding; control for the full effect not named in the record | Potency, µM (highest dose often 57.9 µM), for inactives: top-dose signal change, negative = less light | hit rate 1.2% among 410,000 | AID 1159524; active = well fitted falling curve with a large enough effect; inconclusive = small, poorly fitted or top-dose-only effect; inactive = no such curve, though single readings can be large or run the other way; tested in HEK293T cells; further: on the % scale 0 is the no-effect control and ±100 the full control effect; nearly all actives have a fitted effect of over 45% in size; luciferase light after 4 h
NS1 inh = influenza NS1 inhibition. Potency, µM (top dose mostly 46.1 µM), for the others: top-dose activity, positive = more growth. S. cerevisiae slowed by influenza A NS1, growth recovery by OD600. hit rate 0.4% among 270,000; active means well fitted rising curve with a large enough effect; inconclusive means small, poorly fitted or top-dose-only effect; inactive means no such curve, though single readings can be large or run the other way; further: nearly all actives have a fitted effect of over 50% in size
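A cell-based growth assay was used: compounds that relieve NS1-induced slow growth of budding yeast raise OD600. Assay medium was yeast nitrogen base with ammonium sulphate and -URA supplement, pH 6.0, with 2% galactose.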
LASV entry inh = inhibitors of Lassa virus binding or cell entry; Lassa virus pseudotype entry inhibition, cell reporter; control for the full effect not named in the record; hit rate 1.2% among 300,000; Potency, µM (titrated, usually from 37.9 µM), without a hit: top-dose activity change, negative = inhibition, actives largely listed as inhibitors; AID 540256; active means well fitted inhibition curve with a large enough effect; inconclusive means small, poorly fitted or top-dose-only effect, or effect the other way; inactive means flat fitted curve, though single readings scatter; tested in HEK293 cells; further: on the % scale 0 is the no-effect control and ±100 the full control effect; nearly all actives have a fitted effect of over 50% in size; luciferase read-out
MARV entry inh = blocks Marburg virus binding to or entry into cells; Marburg virus pseudotyped entry inhibition, cell reporter; control for the full effect not named in the record; about a third of the inactives were read at about 46 µM; Potency, µM (doses to about 37.8 µM), for inactives: at the highest dose activity change, negative = inhibition, actives largely listed as inhibitors; hit rate 1.8% among 300,000; AID 540276; active = well fitted inhibition curve with a large enough effect; inconclusive = small, poorly fitted or top-dose-only effect, or effect the other way; inactive = flat fitted curve, though single readings scatter; tested in HEK293 cells; about a fifth of its hits are not listed in these tables; further: on the % scale 0 is the no-effect control and ±100 the full control effect; luciferase read-out
SARS PLpro yeast = inhibitors of SARS-CoV papain-like protease in yeast. AID 485353. hit rate 0.19% among 330,000. Potency, µM (doses to about 32.9 µM), for the others: at the highest dose activity, positive = growth rescue. S. cerevisiae expressing SARS-CoV PLpro, growth rescue; control for the full effect not named in the record; active means well fitted rising curve with a large enough effect; inconclusive means small, poorly fitted or top-dose-only effect; inactive means no such curve, though single readings can be large or run the other way; further: 0% is about no effect; nearly all actives have a fitted effect of over 55% in size; growth read by luminescence after 48 h
Cruzain noTriton = inhibitors of Trypanosoma cruzi cruzain without detergent; P25779; purified cruzain, Z-FR-AMC fluorescence, no detergent; Potency, µM, without a hit: max response, negative = inhibition, most hits filed as inhibitors; hit rate 2.3% among 200,000;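 further: plate controls were enzyme without inhibitor for no effect and buffer without enzyme for full effect; nearly all actives have a fitted effect of over 40% in size; top concentration of the series not given in the record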
Target sequence (P25779 123-467 limits assumed): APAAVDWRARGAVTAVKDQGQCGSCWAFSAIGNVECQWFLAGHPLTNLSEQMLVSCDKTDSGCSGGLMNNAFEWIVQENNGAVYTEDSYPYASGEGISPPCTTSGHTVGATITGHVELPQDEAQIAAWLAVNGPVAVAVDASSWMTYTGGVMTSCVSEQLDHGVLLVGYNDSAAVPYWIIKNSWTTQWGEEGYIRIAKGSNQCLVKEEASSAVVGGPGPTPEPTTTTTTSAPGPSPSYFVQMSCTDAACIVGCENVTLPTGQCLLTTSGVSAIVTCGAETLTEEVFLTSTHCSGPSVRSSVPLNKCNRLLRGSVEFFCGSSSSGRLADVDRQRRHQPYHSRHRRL
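Detergent-free condition (0.00005% Triton X-100) in acetate buffer pH 5.5 with DTT. 1.5 nM enzyme and compound were pre-mixed 15 min, then 2 uM Z-FR-AMC substrate added; reaction progress from fluorescence change between first and third reads (60 s).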
RE007 growth inh = less growth of the S. pombe RE007 Vpr strain | Potency, µM (series often up to 92.2 µM), inactives show at the highest dose activity change, negative = less growth | AID 651644 | hit rate 0.21% among 360,000 | S. pombe RE007 Vpr strain, BacTiter-Glo ATP luminescence, 24 h; control for the full effect not named in the record; active = well fitted falling curve with a large enough effect; inconclusive = small, poorly fitted or top-dose-only effect; inactive = no such curve, though single readings can be large or run the other way;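 further: on the % scale 0 is the no-effect control and ±100 the full control effect; nearly all actives have a fitted effect of over 50% in size; the assay follows cell death caused by Vpr and the record does not say whether a fall means rescue or toxicity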
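Fission yeast strain RE007, carrying one chromosomally integrated HIV-1 vpr copy, was seeded at OD 0.01 in PMG+AL medium with 23 nL pinned compound. After 24 h at 30 °C and 99% humidity, viability was read by BacTiter-Glo luminescence.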
Cruzain inh Det = inhibitors of Trypanosoma cruzi cruzain with detergent; P25779; purified cruzain, Z-FR-AMC fluorescence, 0.01% Triton; Potency, µM, for the others: max response, negative = inhibition, hits mostly inhibitors; hit rate 0.43% among 200,000; AID 1478;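 further: plate controls were neutral wells for no effect and buffer without enzyme for full effect; nearly all actives have a fitted effect of over 40% in size; top concentration of the series not given in the record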
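Detergent-containing arm of a paired screen for aggregation-based inhibition: 0.01% Triton X-100 present. Cruzain at 1.5 nM cleaved 2 uM Z-FR-AMC at pH 5.5 with 5 mM DTT; AMC fluorescence gain over 60 s measured activity.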
An asterisk follows results filed as active; ? = inconclusive; · = no result given; [ ] = remark or other dose. Unless noted, the call rests on the fitted dose curve; in most records, active means well fitted curve in the direction sought with a large enough effect; inconclusive means small, poorly fitted or top-dose-only effect, or another doubt; inactive means no such curve, though single readings can be large; an effect the other way counts as inactive or inconclusive. Potency means the concentration at half of the fitted maximal effect.

SMILES	StopGo reporter	NS1 inh	LASV entry inh	MARV entry inh	SARS PLpro yeast	Cruzain noTriton	RE007 growth inh	Cruzain inh Det
Cc1nn(C(C)C(=O)N2CCN(c3ccc(F)cc3)CC2)c(=O)c2c1sc1ccccc12 (stereo not given)	-26%	·	17%[46.1 µM]	7%[46.1 µM]	·	-9%	·	-1.8%
N/C(=N\OC(=O)COc1ccccc1Cl)c1ccc(Cl)cc1	26%	-3%	25%	4%	-20%	2%	9%	-9.1%
CC(Sc1nnc(COc2ccc(Cl)cc2)n1Cc1ccccc1)C(=O)O (stereo not given)	-7%	3%	8%	?	-1%	·	-3%	·
Cc1c2cnn(CC(=O)NCc3ccc(F)cc3)c(=O)c2c(C)n1Cc1ccccc1Cl	-20%	·	-11%[46.1 µM]	-6%[46.1 µM]	·	-21%	·	-2.6%
O=C1COc2ccc(S(=O)(=O)N3CCN(c4ccccc4)CC3)cc2N1	-10%	8%	25%[46.1 µM]	-20%[46.1 µM]	-7%	·	0%	·
COc1cccc(OC)c1OCCCCN1CCCCC1	-3%	6%	·	·	-10%	·	1%	·
O=C(NC(=S)NC1CCSC1=O)c1ccccc1 (stereo not given)	36%[activator]	5%	13%	-8%	-9%	-8%	-4%	-2.4%
CCc1ccc2oc(C(=O)Nc3cc(Cl)ccc3OC)cc(=O)c2c1	-3%	·	18%[46.1 µM]	-2%[46.1 µM]	·	-5%	·	-0.4%
COc1cccc(/C=C/c2nc(C#N)c(NCC(C)C)o2)c1	8%	-1%	·	·	-4%	·	5%	·
COC(CNC(=O)c1ccc2c(c1)ncn2-c1cccc(C)c1)OC	-2%	0%	1%[46.1 µM]	-13%[46.1 µM]	1%	·	2%	·
CCc1ccc(NC(=O)C(=O)N/N=C(\C)CC(=O)Nc2ccccn2)cc1	18%	?	23%	?	0%	-14%	0%	-5.3%
Cc1ccc2cccc(SCC(=O)NCC#N)c2n1	-21%	15%	11%	37%	-3%	-6%	1%	-1.9%
CCCCn1c(N)c(N(Cc2ccccc2OC)C(=O)COc2cc(C)ccc2Cl)c(=O)[nH]c1=O	-18%	·	10%	-21%	1%	·	-7%	·
Cc1ccc2c(CC(=O)Nc3c(C)n(C)n(-c4ccccc4)c3=O)coc2c1	14%	-8%	-6%	-16%[46.1 µM]	-1%	4%	10%	-1.2%
CCOC(=O)c1nnn(-c2nonc2N)c1CNc1ccc(C)c(Br)c1	-16%	-57%	?	?	0%	0%	-17%	-10%
Cc1cc(C)cc(-n2ccnc2SCC(=O)Nc2nc3ccc(C)cc3s2)c1	-9%	·	-17%[46.1 µM]	·	·	6%	·	-7.2%
Cc1cc(C)cc(NC(=O)CCn2c(=O)c3cccn3c3ccccc32)c1	?	3%	·	·	-1%	·	-7%	·
O=C(CSc1ccccn1)N/N=C/C=C/c1ccccc1	0%	2%	-18%	7%	-25%	-14%	6%	-8.4%
COc1ccc(/C=N\NC(=O)c2ccccc2[N+](=O)[O-])cc1COc1c(F)c(F)c(F)c(F)c1F	-24%	7%	-15%	?	-8%	·	3%	·
CCC1CCCCN1CCCNC(=O)Cn1cnc2sc(C)c(S(=O)(=O)N3CCC(C)CC3)c2c1=O (stereo not given)	10%	-3%	-18%	2%[46.1 µM]	14%	·	-1%	·
COc1ccccc1N(CC(=O)NC(C)(C)C)C(=O)CCC(=O)Nc1ccccn1	-7%	-3%	·	·	-3%	·	-7%	·
CCOc1ccc(C(=O)NC(=S)Nc2ccccc2N2CCC(C)CC2)cc1[N+](=O)[O-]	?	17%	-23%	?	1%	?	2%	4.4%
O=C(CSCc1ccc(C(=O)O)cc1)Nc1ccccc1	-2%	-3%	-11%[46.1 µM]	-20%[46.1 µM]	-1%	·	-7%	·
CCOC(=O)/C(Sc1nc(-c2ccccc2)cc(-c2ccccc2)c1C#N)=C(\C)O	-17%	4%	-3%	14%[46.1 µM]	-1%	·	8%	·
CC(=O)c1ccc(OCC(O)CN2C(C)(C)CC(O)CC2(C)C)cc1 (stereo not given)	-8%	-8%	·	·	5%	-6%	-2%	-2.7%
Cc1noc2ncnc(NCCc3ccccc3)c12	?	·	-17%[46.1 µM]	·	·	-8%	·	-1.1%
COC(=O)c1cc(NS(=O)(=O)c2ccc(N3CCOCC3)c([N+](=O)[O-])c2)cc(C(=O)OC)c1	20%	12%	13%	5%	-16%	9%	7%	-9.4%
CC(=O)Nc1cccc(NC=C(C#N)C#N)c1	-2%	1%	?	-4%	-1%	·	-28%	·
c1ccc(-c2nccnc2-c2ccccc2)cc1	-12%	-48%	10%	9%[46.1 µM]	-2%	·	19%	·
COc1ccc(N(C(C)=O)c2nc(C)cc(C)c2C#N)c(OC)c1	-1%	-2%	1%[46.1 µM]	-2%[46.1 µM]	0%	·	2%	·
Cc1ccc(NC(=O)Cn2nc(-c3ccncc3)ccc2=O)cc1Cl	-9%	·	17%[46.1 µM]	·	·	17%	·	-4.0%
O=C(COc1ccc(Cl)cc1)NCc1nnc(SCC(=O)NC2CCCCC2)o1	0%	-1%	0%	13%	6%	-9%	5%	11%
COCCCN1CC(=O)N2C(c3ccccc3)c3[nH]c4ccccc4c3C[C@H]2C1=O (stereo not given in full)	-8%	-8%	?	?	2%	·	4%	·
Cc1cc(C(=O)OCC(=O)Nc2ccc(F)c(F)c2F)c(C)o1	3%	-1%	1%	-1%[46.1 µM]	-2%	·	-4%	·
CCn1c(COc2c(C)cccc2C)nnc1SCC(=O)N1CCN(c2ccccc2)CC1	?	-7%	?	?	2%	?	-9%	-1.8%
Cn1nc(C(=O)Nc2cccnc2)c2ccccc2c1=O	-5%	-5%	22%	0%	-2%	-3%	-11%	-4.1%
Cc1cc(C)nc(N2CCCC(C(=O)NCc3cccc(C(F)(F)F)c3)C2)n1 (stereo not given)	10%	-18%	-2%	1%	1%	26%	-4%	-1.3%
COc1cc(NS(=O)(=O)c2ccc(NC(=O)c3cccc(F)c3)cc2)nc(OC)n1	-9%	·	?	·	·	-7%	·	-11%
Cc1nn(-c2ccccc2)c(C)c1NC(=O)COC(=O)c1ccccc1OC(F)F	7%	-8%	·	·	7%	·	12%	·
COc1ccc(C(=O)N/N=C(/C)c2cccc(NC(=O)c3ccncc3)c2)cc1OC	-27%	9%	·	·	-1%	·	1%	·
CCCCSc1nc2c(c(=O)[nH]1)CCC2	·	-8%	8%	21%	6%	6%	-15%	4.5%
COC(=O)c1cc(CNC(=O)c2ccc(S(=O)(=O)N(C)c3ccccc3)cc2)ccc1OC	?	·	-16%	-8%	-4%	·	3%	·
Cc1cccc(NC(=O)CNC(=O)c2ccco2)n1	-15%	·	28%	7%	2%	·	14%	·
CS(=O)(=O)c1ccc(Cl)c(NC(=O)COC(=O)c2c(Cl)cccc2Cl)c1	-6%	-5%	-12%	-13%	1%	·	9%	·
Nc1ccc(S(=O)(=O)NCc2ccccn2)cc1	5%	7%	-18%[46.1 µM]	15%[46.1 µM]	1%	·	11%	·
O=C(Oc1ccc(N2C(=O)CCC2=O)cc1)c1ccccc1	80%[activator]	1%	4%	-29%[46.1 µM]	-23%	1%	4%	0.5%
C/C(=N\NC(=O)c1ccc(Br)cc1)c1ccccc1	38%[activator]	-4%	?	?	-6%	5%	19%	0.4%
CC12CCCCC1=NC(c1ccc(Br)cc1)N2O (stereo not given)	6%	-17%	20%	7%	2%	3%	-1%	1.5%
CC1c2nc3ccccc3n2C(CC(=O)NCc2ccccn2)C(=O)N1Cc1ccccc1 (stereo not given)	8%	-8%	38%[14.3 µM]	12%	1%	13µM*	9%	-7.4%
COc1ccc2[nH]c3c(c2c1)CCn1c-3nc2ccccc2c1=O	-6%	1%	-13%	·	-2%	-13%	-18%	1.4%

(further entries)
SMILES	StopGo reporter	NS1 inh	LASV entry inh	MARV entry inh	SARS PLpro yeast	Cruzain noTriton	RE007 growth inh	Cruzain inh Det
O=C(O)c1ccc(Cl)c(S(=O)(=O)NC(Cc2ccccc2)C(=O)O)c1 (stereo not given)	-1%	·	-1%[46.1 µM]	-17%[46.1 µM]	1%	·	10%	·
CCOc1ccccc1NC(=O)Cn1c(=O)n(Cc2cccs2)c(=O)c2cccnc21	-14%	·	·	1%[46.1 µM]	·	-5%	·	-0.8%
CCOC(=O)c1ccc(NC(=O)CCN2C(=O)C3CC=CCC3C2=O)cc1 (stereo not given)	9%	·	6%	2%	0%	·	1%	·
Cc1nn(Cc2ccc(Cl)cc2)c(=O)n1N(C)c1ncc(C(F)(F)F)cc1Cl	?	-4%	-2%	-29%[46.1 µM]	-7%	?	24%	-5.4%
O=C(CCC1N=C2c3ccccc3N=C(SCC(=O)Nc3ccc(F)cc3)N2C1=O)NCc1cccs1 (stereo not given)	?	·	11%[46.1 µM]	·	·	-3%	·	-0.6%
Cc1cccc(C2c3[nH]c4ccccc4c3CCN2C(=O)c2cc(CC(C)C)nc(C)n2)n1 (stereo not given)	0%	-7%	14%[46.1 µM]	-3%[46.1 µM]	-1%	·	0%	·
Cc1cccc(NC(=O)CSCC(=O)Nc2cccc(S(=O)(=O)N3CCCCCC3)c2)c1	-1%	·	-18%[46.1 µM]	-18%	3%	·	5%	·
O=c1[nH]c2c(n(C3CCCCC3)c1=O)CCC2	-21%	-3%	2%	12%	0%	0%	1%	2.9%
Cc1cccc(NC(=O)C(=O)NCCCc2ccccc2)c1	·	3%	14%	?	23%	-12%	·	-1.0%
COc1ccc2nc(Nc3nc4cc5c(cc4s3)OCCO5)sc2c1	6%	15%	3%	6%	-32%	?	-2%	-2.4%
Cc1ccc(S(=O)(=O)N2CCOCC2)cc1NC(=O)COC(=O)CCc1c[nH]c2ccccc12	-12%	·	5%	8%	22%	·	19%	·
CSC1=NCCN1C(=O)c1ccc(S(=O)(=O)N2CCCCC2)cc1	-15%	6%	·	-8%	2%	24%	8%	-0.9%
CC(=O)Nc1ccc2c(COC(=O)[C@H](C)N3C(=O)C4CCCCC4C3=O)cc(=O)oc2c1 (stereo not given in full)	-17%	2%	?	6%[46.1 µM]	0%	·	4%	·
COc1ccc(OC)c(-c2csc(N(Cc3ccco3)C(=O)c3ccco3)n2)c1	-26%	·	?	?	1%	·	11%	·
Cc1ccc(CCNC(=O)c2ccc3c(c2)N(Cc2cccc(C)c2)C(=O)c2ccccc2S3(=O)=O)cc1	-6%	·	-11%[46.1 µM]	?	·	?	·	-0.1%
